# SARS PLpro yeast = SARS-CoV PLP inhibition in yeast | 0.19% of 330,000 active | AID 485353 | Potency, µM (top dose mostly 32.9 µM), for the others: at the highest dose activity, positive = growth rescue | S. cerevisiae expressing SARS-CoV PLpro, growth rescue; control for the full effect not named in the record; further: 0% is about no effect; nearly all actives have a fitted effect of over 55% in size; growth read by luminescence after 48 h
# StopGo reporter = lowers the luciferase signal of an FMDV 2A StopGo reporter; 1.2% of 410,000 active; Potency, µM (top dose mostly 57.9 µM), inactives show at the highest dose signal change, negative = less light; AID 1159524; human cells with a luciferase reporter of 2A StopGo recoding; control for the full effect not named in the record; active = well fitted falling curve with a large enough effect; inconclusive = small, poorly fitted or top-dose-only effect; inactive = no such curve, though single readings can be large or run the other way; tested in HEK293T cells; further: on the % scale 0 is the no-effect control and ±100 the full control effect; nearly all actives have a fitted effect of over 45% in size; luciferase light after 4 h
# Cruzain inh Det = blocks cruzain activity in presence of Triton detergent. P25779. purified cruzain, Z-FR-AMC fluorescence, 0.01% Triton. Potency, µM, inactives show max response, negative = inhibition, hits mostly inhibitors. 0.43% of 200,000 active; active means well fitted curve in the direction sought with a large enough effect; inconclusive means small, poorly fitted or top-dose-only effect, or another doubt; inactive means no such curve, though single readings can be large; an effect the other way counts as inactive or inconclusive;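 further: plate controls were neutral wells for no effect and buffer without enzyme for full effect; nearly all actives have a fitted effect of over 40% in size; top concentration of the series not given in the record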
# Target sequence (P25779 123-467 limits assumed): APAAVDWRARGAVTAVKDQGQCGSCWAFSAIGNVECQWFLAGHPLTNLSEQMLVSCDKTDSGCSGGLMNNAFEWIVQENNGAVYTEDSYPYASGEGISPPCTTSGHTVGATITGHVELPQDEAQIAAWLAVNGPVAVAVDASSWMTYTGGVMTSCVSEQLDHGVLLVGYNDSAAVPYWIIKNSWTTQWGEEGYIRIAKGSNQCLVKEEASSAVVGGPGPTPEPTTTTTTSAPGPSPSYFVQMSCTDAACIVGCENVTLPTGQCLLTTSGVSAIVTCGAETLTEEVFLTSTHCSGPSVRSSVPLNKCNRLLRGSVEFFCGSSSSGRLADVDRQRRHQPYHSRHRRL
#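 Z-FR-AMC hydrolysis (2 uM substrate) by cruzain (1.5 nM) monitored kinetically at ex 360/em 450 nm after 15 min room-temperature compound exposure; 0.01% Triton X-100, pH 5.5, 5 mM DTT.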
# Cruzain inh noDet = inhibitors of Trypanosoma cruzi cruzain without detergent. P25779. purified cruzain, Z-FR-AMC fluorescence, no detergent. Potency, µM, without a hit: max response, negative = inhibition, hits mostly inhibitors. 2.3% of 200,000 active. AID 1476; active means well fitted curve in the direction sought with a large enough effect; inconclusive means small, poorly fitted or top-dose-only effect, or another doubt; inactive means no such curve, though single readings can be large; an effect the other way counts as inactive or inconclusive;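 further: plate controls were enzyme without inhibitor for no effect and buffer without enzyme for full effect; nearly all actives have a fitted effect of over 40% in size; top concentration of the series not given in the record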
#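 Detergent-free condition (0.00005% Triton X-100) in acetate buffer pH 5.5 with DTT. 1.5 nM enzyme and compound were pre-mixed 15 min, then 2 uM Z-FR-AMC substrate added; reaction progress from fluorescence change between first and third reads (60 s).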
# NS1 function inh = blocks influenza NS1 protein function | S. cerevisiae slowed by influenza A NS1, growth recovery by OD600 | Potency, µM (top dose mostly 46.1 µM), for inactives: at the top dose activity, positive = more growth | 0.4% of 270,000 active | AID 2326; further: actives are rising curves; nearly all actives have a fitted effect of over 50% in size
#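 A cell-based growth assay was used: compounds that relieve NS1-induced slow growth of budding yeast raise OD600. Assay medium was yeast nitrogen base with ammonium sulphate and -URA supplement, pH 6.0, with 2% galactose.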
# Lassa entry inh = blocks Lassa virus binding to or entry into cells | Lassa virus pseudotype entry inhibition, cell reporter; control for the full effect not named in the record | Potency, µM (titrated, usually from 37.9 µM), inactives show at the highest dose activity change, negative = inhibition, usual class: inhibitors | 1.2% of 300,000 active | AID 540256; active means well fitted inhibition curve with a large enough effect; inconclusive means small, poorly fitted or top-dose-only effect, or effect the other way; inactive means flat fitted curve, though single readings scatter; tested in HEK293 cells; further: on the % scale 0 is the no-effect control and ±100 the full control effect; nearly all actives have a fitted effect of over 50% in size; luciferase read-out
# RE007 growth inh = less growth of the S. pombe RE007 Vpr strain. S. pombe RE007 Vpr strain, BacTiter-Glo ATP luminescence, 24 h; control for the full effect not named in the record. Potency, µM (series often up to 92.2 µM), for inactives: top-dose activity change, negative = less growth. 0.21% of 360,000 active. AID 651644; active = well fitted falling curve with a large enough effect; inconclusive = small, poorly fitted or top-dose-only effect; inactive = no such curve, though single readings can be large or run the other way;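 further: on the % scale 0 is the no-effect control and ±100 the full control effect; nearly all actives have a fitted effect of over 50% in size; the assay follows cell death caused by Vpr and the record does not say whether a fall means rescue or toxicity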
#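 Fission yeast RE007 carrying one integrated HIV-1 vpr copy, seeded at OD 0.01 in PMG+AL medium with 23 nL pinned compound. Grown 24 h at 30 degrees; viability read by BacTiter-Glo luminescence after 5 min.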
# Marburg entry inh = inhibitors of Marburg virus binding or cell entry. Marburg virus pseudotyped entry inhibition, cell reporter; control for the full effect not named in the record; about a third of the inactives were read at about 46 µM. Potency, µM (doses to about 37.8 µM), for inactives: top-dose activity change, negative = inhibition, most hits filed as inhibitors. AID 540276. 1.8% of 300,000 active; active = well fitted inhibition curve with a large enough effect; inconclusive = small, poorly fitted or top-dose-only effect, or effect the other way; inactive = flat fitted curve, though single readings scatter; tested in HEK293 cells; about a fifth of its hits are not listed in these tables; further: on the % scale 0 is the no-effect control and ±100 the full control effect; luciferase read-out
# * marks the source's active call; other numbers are inactive results; ? = inconclusive; . = no result given; & = joins results of further samples; [ ] = remark or other dose. Unless noted, the call rests on the fitted dose curve; in most records, active means well fitted rising curve with a large enough effect; inconclusive means small, poorly fitted or top-dose-only effect; inactive means no such curve, though single readings can be large or run the other way. Potency means the concentration at half of the fitted maximal effect. Outcome played no part in choosing rows; about 4.6% have a hit in one of these screens.
SMILES,SARS PLpro yeast,StopGo reporter,Cruzain inh Det,Cruzain inh noDet,NS1 function inh,Lassa entry inh,RE007 growth inh,Marburg entry inh
NC(=O)c1c(N)sc2c1CCC2,0%,-4%,.,.,1%,20%[46.1 µM],8%,?
COc1ccc(NC(=O)CN(C)S(=O)(=O)c2ccc3c(c2)CCCN3C(C)=O)cc1Cl,.,?,-2.7%,14%,.,-6%[46.1 µM],.,.
CC1CCC(N2CCN(C(=O)c3ccccc3F)CC2)CC1 (stereo not given),7%,-3%,.,.,-1%,.,-19%,.
O=C(Nc1cccs1)N1CCN(c2ncccn2)CC1,-1%,5%,.,.,-1%,.,1%,.
Cn1c(SCc2cc(=O)n3cc(Br)ccc3n2)nnc1C1COc2ccccc2O1 (stereo not given),-5%,-18%,-3.4%,-16%,-33%,17%,0%,0%&0%
CCN1CCCC1Cn1cnc2c([nH]c3ccc(OC)cc32)c1=O (stereo not given),-1%,8%,.,.,-7%,-1%,-13%,?
Cc1cc(C)nc(N2CCCC(C(=O)Nc3ccc4nc(C)c(C)nc4c3)C2)n1 (stereo not given),-9%,-24%,-6.9%,?,-54%,4%,-17%,?
CCCCCCCCCCCCN1C/C(=C\C(=O)OCC)c2ccccc2S1(=O)=O,-6%,-8%,.,.,11%,.,0%,.
CC1CCN(CCCNC(=O)CCc2nnc3n(CCc4ccccc4)c(=O)c4ccccc4n23)CC1,-1%,22%,.,.,-9%,-17%[46.1 µM],-7%,?
Cn1c(SCC(=O)Nc2ccc3c(c2)oc2ccccc23)nnc1-c1ccccc1,-5%,.,-0.5%,13µM*,-9%,-2%,38%&12%,-3%&3%
CN(CC(=O)Nc1cccc(F)c1)C(=O)CCc1nc2sc3c(c2c(=O)[nH]1)CCCC3,-2%,3%,.,.,.,0%,-5%,-26%
CCCc1nc(-c2ccc(-c3ccc(F)cc3)cc2)no1,8%,27%,4.4%,-16%,-11%,-1%,?,4%
CCCN(CCC)Cc1c(C(=O)N/N=C/c2cccs2)nnn1-c1nonc1N,2%,14%,.,.,-1%,5%[46.1 µM],-26%,6%[46.1 µM]
CC1(OC(=O)C2CCCC2)C(=O)C=C2C=C(c3ccsc3)N(C(CO)CO)C=C2C1=O (stereo not given),0%,-9%,.,.,-6%,.,-4%,18%&18%[14.2 µM]
Oc1ccccc1-c1nnc(-c2ccc(C(F)(F)F)cc2)o1,3%,54%[activator],3.1%,-27%,-5%,?,7%,17%
O=C(N/N=C/c1cc2c(cc1Cl)OCO2)c1ccncc1,7%,-2%,-5.3%,-10%,1%,?,-17%,?
O=C(CSc1nnc(SCc2ccc(Cl)cc2)s1)N1CCOCC1,-2%,-10%,-2.1%,?,-11%,-29%,-3%,8%
Cc1cc(Cl)ccc1OCC(=O)N(Cc1ccc(N(C)C)cc1)C1CCS(=O)(=O)C1 (stereo not given),.,2%,-5.3%,?,.,-3%[46.1 µM],.,-10%[46.1 µM]
Cc1cc(N2CCOCC2)nc(-c2ccc([N+](=O)[O-])cc2)n1,2%,5%,2.1%,-2%,-13%,2%,3%,0%
CC(=O)c1cccc(NC(=O)C2CCCN(S(=O)(=O)c3ccccc3)C2)c1 (stereo not given),1%,?,-5.0%,-9%,-48%,?,9%,-1%
O=C(Cn1nnc(-c2ccccc2)n1)N/N=C/c1ccco1,1%,-3%,.,.,.,3%[46.1 µM],-4%,?
COc1cccc(C2C3=C(CCCC3=O)Nc3nc(-c4cc(OC)c(OC)c(OC)c4)nn32)c1 (stereo not given),-1%,-12%,-9.5%,?,-13%,1%,-10%,-18%&-18%
CCCc1cc(C(N)=O)c(NC(C)=O)s1,-5%,-12%,-2.6%,3%,-11%,-27%,-2%,-15%
COc1ncnc2sc(-c3ccccc3)cc12,16%,68%[activator],-5.4%,12%,-67%,5%,?,-1%
Cc1ccccc1Oc1nc2ccccn2c(=O)c1/C=C(\C#N)C(=O)Nc1c(C)n(C)n(-c2ccccc2)c1=O,9%,22µM*,-6.1%,?,-4%,-14%,-16%,4%
COc1ccc(C(=O)N=C2SC3CS(=O)(=O)CC3N2c2ccc(N(C)C)cc2)cc1OC (stereo not given),0%,-10%,.,.,18%,.,15%,.
COC(=O)CCSc1nc(N2CCOCC2)c2c(c1C#N)CC(C)(C)OC2,1%,-16%,.,.,-2%,?,-5%,?
O=C(NCc1cc([N+](=O)[O-])ccc1O)c1cccnc1Sc1ccc(Cl)cc1,-3%,-12%,.,.,-53%,0%,-3%,17%
Clc1ccc(Cn2c(-c3cccnc3Cl)nc3ccccc32)cc1,-6%,?,0.1%,9%,-46%,5%,6%,-23%
Clc1ccc(-c2csc(=Nc3cccnc3)n2CCCn2ccnc2)cc1Cl,10%,32µM*,-9.3%,-5%,-15%,?,-22%,?
CCOC(=O)c1cnc(SCc2nc(N)nc(Nc3ccccc3)n2)nc1N,4%,?,-2.0%,23%,?,0%,-19%,-14%
O=C(O)C(=Cc1ccccc1)Cc1ccccc1,.,-4%,.,.,.,4%[46.1 µM],-12%,-8%[46.1 µM]
CCN1C(=O)CC(c2ccc(OC(C)C)cc2)C1=O (stereo not given),1%,24%,.,.,3%,4%,7%,26%
CCN(CC)S(=O)(=O)c1ccc2c(c1)nc(CN(C)C(=O)Nc1ccc(F)cc1)n2C,.,-27%,-0.3%,4%,.,0%[46.1 µM],.,.
Cc1nnc(NCc2ccc(Cl)cc2)c2c1nnn2Cc1ccc(F)cc1,.,-6%,0.2%,11%,.,11%[46.1 µM],.,2%[46.1 µM]
Oc1ccc(F)cc1-c1cc(-c2ccc3c(c2)OCCO3)n[nH]1,-2%,3%,-3.5%,7%,11%,?,3%,?
CCCCN(Cc1ccco1)S(=O)(=O)c1c[nH]c(C(=O)OC)c1,0%,4%,.,.,-7%,.,8%,.
CCCCC(=O)Nc1ccc(N2CCN(c3ccc(F)cc3)CC2)cc1,-1%,-15%,.,.,3%,13%[46.1 µM],14%,11%[46.1 µM]
CN(C/C=C/c1ccccc1)C1CCCCC1,-4%,-4%,.,.,.,?,14%,-7%[46.1 µM]
O=C(COC(=O)/C=C/c1ccco1)Nc1cccc([N+](=O)[O-])c1,25%,1%,-4.7%,-4%,2%,?,.,-3%
Cc1cc(C)n(-c2ccc(C(=O)NC(C)C)cc2)n1,0%,11%,-0.6%,0%,2%,6%,7%,20%
CC(=O)N/C(=C\c1ccccc1)C(=O)NC(C)C(=O)O (stereo not given),1%,-7%,.,.,.,18%,-3%,0%
CCN(Cc1ccncc1)C(=O)c1cc(COc2c(C)cccc2C)on1,-12%,8%,.,.,-39%,-8%[46.1 µM],0%,4%[46.1 µM]
O=C1C(=O)N(CCN2CCOCC2)C(c2ccc(Cl)c(Cl)c2)/C1=C(/O)c1ccc2c(c1)OCO2 (stereo not given),4%,-19%,.,.,-11%,3%,-13%,-6%
CC1Cc2ccccc2N1CC(=O)c1c(N)n(Cc2ccccc2)c(=O)n(C)c1=O (stereo not given),19%,0%,-8.9%,1%,?,20%,-4%,-6%
Cc1ccc2nc(-c3ccncc3)c(NC3CCCCC3)n2c1,2%,-29%,.,.,.,2%,-10%,12%[46.1 µM]
Cc1nc(C(=O)Nc2ccccc2)sc1C(=O)Nc1ccccc1,-1%,26%,.,.,-45%,7%[46.1 µM],-29%,?
CCc1c(C)nc2ncnn2c1N1CCC(C(=O)Nc2ccc(C)cc2)CC1,-3%,-24%,-5.7%,3%,-7%,-25%,3%,?
O=C(c1ccco1)N1CCC(c2nc3c(nnn3Cc3ccccc3Cl)c(=O)[nH]2)CC1,3%,40%[activator],.,.,7%,?,6%,7%[46.1 µM]
CCCCOc1ccc(C(=O)N/C(=C\c2ccc(OC)cc2)C(=O)OCc2ccco2)cc1,-5%,-6%,-8.4%,-24%,29%,?,-5%,-11%
CCN(CC)CCCn1c2c(c(SCC(=O)Nc3nc(C)cs3)nc1=O)CCC2,-6%,-4%,.,.,.,0%,-19%,-43%
CNc1nc2sc3c(c2c(=O)n1C)CC(C)(C)SC3,-3%,-25%,0.6%,-8%,-35%,-8%,29%,5%
CCCCCNC(=O)c1cccnc1SCC(=O)Nc1ccccc1OC,3%,-7%,-2.7%,16%,13%,2%,0%,-29%
Cn1c(N)c(C(=O)COC(=O)CCC2CCCCC2)c(=O)n(C)c1=O,-3%,-29%,.,.,.,6%,3%,?
O=C(c1ccccc1)N1CCN(C(=O)c2nn3c(C(F)(F)F)cc(-c4ccco4)nc3c2Cl)CC1,-3%,4%,.,.,0%,-6%[46.1 µM],-8%,2%[46.1 µM]
O=C(Nc1n[nH]c(C2CCCCC2)n1)C1CCCCC1,-1%,.,-3.2%,0%,4%,-28%,5%,15%
O=C(NCC(c1ccco1)N1CCN(c2ccccc2F)CC1)OCc1ccccc1 (stereo not given),-27%,5%,-7.7%,11%,-53%,-22%,0%,12%
CC(C)CNC(=O)COC(=O)c1cc(S(=O)(=O)N(C)C)ccc1N1CCCC1,0%,27%,.,.,0%,-17%[46.1 µM],10%,-19%[46.1 µM]
Cc1cc(CCNC=O)c(C)c2c1oc1ccccc12,.,8%,.,.,.,?,11%,?
Cc1ccc(S(=O)(=O)c2nc(C(C)(C)C)oc2N2CCOCC2)cc1,2%,-9%,4.9%,3%,-6%,-11%,-11%,-13%
# Further structures follow:
SMILES,SARS PLpro yeast,StopGo reporter,Cruzain inh Det,Cruzain inh noDet,NS1 function inh,Lassa entry inh,RE007 growth inh,Marburg entry inh
CCOC(=O)N/N=C/c1c(F)cccc1F,-12%,36%[activator],1.3%,-6%,6%,12%,.,10%
CCCCCn1c(CCCNC(=O)c2ccccc2OC)nc2ccccc21,.,0%,-1.1%,4%,.,-8%[46.1 µM],.,?
Cc1cccc(-c2noc(CN(C3CCCCC3)S(=O)(=O)c3ccc(F)cc3)n2)c1,.,10%,-5.8%,-7%,.,1%[46.1 µM],.,12%[46.1 µM]
CC(=O)c1cccc(CN2CCCCC2C(=O)Nc2ccc(Oc3ccccc3)nc2)c1 (stereo not given),3%,-3%,.,.,-11%,-12%,-3%,?
